Source: PubChem
Sa growth inh = inhibitors of Staphylococcus aureus growth at 42 °C | S. aureus RN4220 growth, OD600, 20 h; active compounds read low | relative growth, % (concentration not given with the values) | 170,000 compounds, 0.53% hits | AID 720641;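 active = growth at 42 °C up to 50% and 20 or more points under that at 30 °C, or under 10% at both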;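 note: 300 nL library stock went into each well; scaled to the means of positive and negative controls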
HCMV NEC inh = inhibitors of HCMV UL50-UL53 nuclear egress complex interaction; inhibition, % (no concentration beside the values); 190,000 compounds, 0.15% hits; HTRF UL50-UL53 interaction, normalized percent inhibition; AID 1918969;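 active = both replicates at 50% or more, plus weaker picks with an unusually low signal ratio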;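 note: stock transfer was 100 nL into about 20 µL; 0% = negative control wells and 100% = wells with untagged competitor protein; inactives centre near -12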
GIV-Gai inh = GIV-Galpha-i interaction inhibition; P08753; Galpha-i3/FITC-GIV peptide fluorescence polarization, 90 min; active compounds read low; scaled: aluminum fluoride 0%, vehicle 100%; percent of control (FP), % (concentration not given with the values); 210,000 compounds, 0.42% hits; AID 1224905;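 active = replicate mean at 85% of control or lower, very high polarization wells dropped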;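 note: wells of about 15 µL received 100 nL stock; the first replicate is given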
Target sequence (P08753 whole entry, looked up): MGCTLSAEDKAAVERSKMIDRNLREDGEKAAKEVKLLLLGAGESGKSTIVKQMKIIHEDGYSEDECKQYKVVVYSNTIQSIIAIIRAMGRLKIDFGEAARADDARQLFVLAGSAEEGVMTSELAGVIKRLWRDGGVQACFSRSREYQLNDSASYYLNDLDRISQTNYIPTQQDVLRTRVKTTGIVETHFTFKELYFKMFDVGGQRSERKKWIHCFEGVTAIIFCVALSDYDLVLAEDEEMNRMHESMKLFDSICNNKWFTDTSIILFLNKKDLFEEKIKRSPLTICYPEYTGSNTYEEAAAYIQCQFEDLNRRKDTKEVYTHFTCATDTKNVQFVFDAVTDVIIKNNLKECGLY
Sa growth inh second temp = recorded beside Sa growth inh, whose call it bears; relative growth, %; measured here: growth at 30 °C;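 optical density after 20 h as mean of two plates; 100% = untreated growth and lower means inhibition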
* = called active by the depositor; nt = no result given; & = joins results of further samples.

SMILES	Sa growth inh	Sa growth inh second temp	HCMV NEC inh	GIV-Gai inh
Cc1cc(/C=C2/SC(=Nc3ccccc3)NC2=O)c(C)n1-c1cccc([N+](=O)[O-])c1	nt	nt	-24	106
Cc1cc(C(=O)NCc2cccn2C)nn1C	91	84	-42	100
CC1CCN(Cc2cc(=O)n3[nH]c(-c4ccc(C(C)(C)C)cc4)nc3n2)CC1	nt	nt	-23	99
COc1ccc(-c2nsc(NC(=O)c3cccc(OC)c3)n2)cc1	89	83	-32	101
CC(C)(C)c1ccc(C2CC(=O)C(C=NCCN3CCNCC3)=C(O)C2)cc1 (stereo not given)	83	84	-35	102
CC(OC(=O)CCc1nc(=O)c2ccccc2n1C)C(N)=O (stereo not given)	87	87	-35	nt
COc1ccc(CNC(=O)CN(C)c2ccccc2)cc1	87	89	5	nt
CC(C)=NOCC(=O)Nn1c(COc2c(C)cccc2C)nc2ccccc2c1=O	112	89	0	nt
CCOC(=O)C1CCCCN1S(=O)(=O)c1ccc2ccccc2c1 (stereo not given)	92	91	-31	nt
O=C1c2cccnc2C(=O)N1Cc1ccc(S(=O)(=O)N2CCN(Cc3ccccc3)CC2)cc1	nt	nt	-12	107
O=S(=O)(c1cc(Br)c(Br)s1)N1CCN(Cc2ccc3c(c2)OCO3)CC1	105	92	-15	105
Nn1c(-c2ccncc2)nncc1=O	101	88	-10	103
CCOc1ccc(OCC)c(NS(=O)(=O)c2cc(-c3cnc(C)o3)ccc2OC)c1	96	80	nt	103
CSC(=NCc1ccccc1)Nc1cc(-c2ccccc2)[nH]n1	82	68	nt	101
Cc1cc(OCC(=O)NC(Cc2c[nH]c3ccccc23)C(=O)O)ccc1Cl (stereo not given)	110	84	-40	102
Cc1ccc(C(=O)C2=C(O)C(=O)N(CCc3ccccc3)C2c2ccncc2)o1 (stereo not given)	91	94	-33	96
OC1CCC(n2c(-c3ccccc3)nc(=S)c3c2CCCC3)CC1 (stereo not given)	69	91	nt	107
Cc1ccc(NC(=O)N2CCN(Cc3nc4ccc(C)cc4o3)CC2)c(Cl)c1	100	86	nt	107
CCOc1ccc(/C=C/C(=O)Nc2ccc3nc(N(CC)CC)cc(C)c3c2)cc1OC	106	57	-2	99
CCOC(=O)c1c(-c2ccccc2)oc2ccc(NS(=O)(=O)c3ccccc3)cc12	88	78	-48	101
O=C(Nc1c(-c2ccccc2)nc2ccccn12)c1ccccc1Br	nt	nt	-12	103
CCNc1nc(Cl)nc(N(C)C#N)n1	103	96	-7	107
CCN(CC)CCNC(=O)c1nn(-c2ccc(OC)c(Cl)c2)c(=O)c2c1c1ccccc1n2C	96	88	-39	104
CCn1c(C(=O)O)c(CC(=O)Nc2ccccc2F)c2ccccc21	111	75	nt	103
CCSc1nnc2c3ccccc3n(CC)c2n1	87	109	-34	100
(further entries)
SMILES	Sa growth inh	Sa growth inh second temp	HCMV NEC inh	GIV-Gai inh
N#Cc1ncc(C(F)(F)F)cc1SCc1ccc(Cl)cc1	nt	nt	-10	107
N#CC1COc2ccccc2O1 (stereo not given)	98	93	-17	99
Cc1ccc(N2CCn3c(nc4ccccc43)C2)cc1NC(=O)C(C)C	nt	nt	1	102
COc1ccc(C2=Nc3ccccc3N(Cc3ccc(C)cc3)C(=O)C2)cc1	nt	nt	-29	101
O=C(CSc1ccccn1)NCCOc1ccccc1	86	94	6	104
CCC(=O)N1c2ncnn2C(c2ccccc2OC)CC1c1ccccc1 (stereo not given)	105	80	nt	108
CCn1cnc2c1c(=O)n(Cc1csc(-c3ccccc3)n1)c(=O)n2Cc1ccccc1	97	89	-23	nt
COc1ccc(N(CC(=O)Nc2cc(OC)cc(OC)c2)S(=O)(=O)c2c(C)noc2C)cc1	80	81	-13	114
CC(C)(C)c1csc(-c2ccc(C=N/C(C#N)=C(\N)C#N)cc2)n1	109	84	-10	103
COc1cc(C(=O)Nc2ccc(NC(=O)c3ccc(C(C)(C)C)cc3)cc2)cc(OC)c1OC	107	106	19	103
CCOC(=O)N1CCN(C(=O)C(CC)n2nc(C)c3sc4ccccc4c3c2=O)CC1 (stereo not given)	102	88	4	99
Cc1cc(NC(=O)CCN2C(=O)/C(=C/c3ccc(F)cc3)SC2=S)no1	nt	nt	-46	105
Cc1cc(=O)oc2cc(Oc3nnc(-c4ccccc4)c4ccccc34)ccc12	nt	nt	-24	101
C/C(=N\Nc1ccccc1Cl)C(c1ccccc1)N1CCOCC1 (stereo not given)	78	94	-25	nt
O=C(c1nn2c(C(F)(F)F)cc(-c3cccs3)nc2c1Br)N1CCOCC1	nt	nt	4	106
c1ccc(-c2ccc(-c3csnn3)cc2)cc1	nt	nt	-19	98
Cn1c2ccccc2c2nnc(SCCCC(=O)c3ccc4c(c3)OCCO4)nc21	103	77	nt	103
Cc1ccc2c(c1)nnn2C1CCN(CC(=O)N2c3ccccc3CC2C)CC1 (stereo not given)	95	61	-6	101
c1coc(CNc2nc3nonc3nc2NCc2ccco2)c1	nt	nt	-42	108
Cc1ccc(-n2c(Sc3cnccn3)nnc2-c2ccccc2)cc1C	106	94	-17	nt
CCOC(=O)c1cc(NC(=O)N2CCOCC2)c(C)nc1C	nt	nt	-30	100
O=C1NNC(=S)C1C1CC1 (stereo not given)	74	88	-9	nt
Cc1ccc(Cl)cc1NC(=O)C1CCCN(c2ccc3cc(S(=O)(=O)N4CCCC4)ccc3n2)C1 (stereo not given)	nt	nt	-20	106
CCCN=c1ssc(=O)n1CCC	73	54	-30	99
CCOC(=O)c1nnn(C(CC)C(=O)Nc2ccc(F)cc2)c1C(=O)OCC (stereo not given)	102	83	-12	102
More compounds.
SMILES	Sa growth inh	Sa growth inh second temp	HCMV NEC inh	GIV-Gai inh
COC(=O)c1ccc(Nc2cc(=O)[nH]c(=O)[nH]2)cc1	109	71	-16	100
CC(=O)n1c2cc(C#N)c(C#N)cc2oc2nc3ccccc3nc2c2ccccc21	100	80	-32	97
N#Cc1cccc(NC(=O)CSc2ncccn2)c1	101	109	14	nt
O=C(O)/C=C/CC(=O)O	84	92	2	nt
O=C(Oc1ccc(C2SCCS2)cc1)c1cccs1	103	88	3	99
COc1cc(-c2nc3ccccc3c(=O)n2OC(=O)c2ccccc2Cl)cc(OC)c1OC	nt	nt	-12	101
CCOc1ccc(-c2nonc2NC(=O)c2oc3ccc(C)cc3c2C)cc1OCC	96	91	-10	101
COc1ccc(CCC(=O)Nc2ccc(N3CCCS3(=O)=O)cc2)cc1	nt	nt	-10	101
Cc1cc(=O)nc2c3ccccc3n(CC(=O)N3CCC(C)CC3)n12	nt	nt	-15	113
CSC1=NCCN1CC(=O)c1ccc(F)cc1	109	101	9	102
COC(=O)/C=c1\sc2n(c1=O)CCN=2	90	93	nt	89
Cc1cc(Nc2cccc(Cl)c2)nc2ccc(NC(=O)c3ccc(F)cc3Cl)cc12	127	93	nt	102
CC1CCCCN1Cc1c(O)ccc2c(=O)c(-c3ccccc3)coc12 (stereo not given)	109&105	96&100	-22&1	107&104
c1csc(CN=C2SCCN2C2CCCCC2)c1	103	98	-16	nt
N#Cc1cnc(SCC(=O)Nc2ccccc2C(F)(F)F)nc1N	90	92	-43	121
Cc1ccc(N2C(=O)c3nccnc3C2=O)c(Cl)c1	nt	nt	-7	97
CCOC(=O)c1cccc(OCC(O)CNCC(c2ccc(OC)cc2)N2CCCC2)c1 (stereo not given)	75	87	-15	nt
O=C(O)CNC(=O)c1ccc(Oc2ccccc2)cc1	120	95	-7	nt
CC(Sc1nc2cc(Cl)ccc2c(=O)n1Cc1ccco1)C(=O)Nc1ccc(Cl)cn1 (stereo not given)	106	91	-3	nt
O=C(CCn1c(=S)oc2ccccc21)Nc1ccccc1F	96	90	nt	102
Cc1cc(C)c(NC(=O)C(C)n2nnc3sc4c(c3c2=O)CCCC4)c(C)c1 (stereo not given)	93	97	0	100
CC1CCN(S(=O)(=O)c2ccc3nc(Nc4cccc(F)c4)ccc3c2)CC1	99	89	nt	107
COc1ccc(NC(=O)CCC(=O)N2CCSc3nc(C)cc(C)c32)cc1	nt	nt	5	108
CC1CCN=C(N)S1 (stereo not given)	nt	nt	-2&4	113
Cc1cc(OCC(=O)Nc2ccc(OC(F)(F)F)cc2)c2ccccc2n1	91	89	-27	102
More results:
SMILES	Sa growth inh	Sa growth inh second temp	HCMV NEC inh	GIV-Gai inh
Cc1nn(CC(=O)NCCc2ccc(Cl)cc2)c(=O)c2cc3cc(F)ccc3n12	103	82	-6	100
COc1ccc(Cl)cc1NC(=O)C1CCCN(c2nc3ccccc3nc2C(F)(F)F)C1 (stereo not given)	nt	nt	-2	105
CN(C)C(=S)Oc1ccc2c(C(F)(F)F)cc(=O)oc2c1	110	105	1	97
CN1CCN(Cc2nc(N)nc(Nc3ccccc3)n2)CC1	108	80	-9	102
Fc1ccccc1CSc1nccn2nc(-c3ccc(Br)cc3)cc12	nt	nt	-17	111
Cc1ncsc1CCOC(=O)c1ccc2c(c1)S(=O)(=O)c1ccccc1C2=O	104	100	-28	nt
CCCCn1c(SCn2nnc3ccccc3c2=O)nc2cc(S(=O)(=O)N3CCCCC3)ccc21	107	95	-22	nt
CSC(=CC(=O)c1ccco1)SC	87	85	-58	105
CCc1ccc(NC(=O)CN2C(=O)C(c3ccc(F)cc3)=NC2(C)C)cc1	109	84	-28	100
COc1ccc(SCc2cc(=O)n3nc(-c4cccc(C)c4)sc3n2)cc1	nt	nt	6	100
Cc1ccc(CNC(=O)Cn2c(=O)n(-c3ccc(C)c(C)c3)c(=O)c3c(C)c(C)sc32)cc1	98	84	nt	104
CN(CC(=O)Nc1ccc(F)c(F)c1F)CN1C(=O)C2CC=CCC2C1=O (stereo not given)	99	96	-14	nt
Cc1onc(-c2ccccc2Cl)c1C(=O)Nc1nnc(-c2cccc([N+](=O)[O-])c2)s1	nt	nt	-3	109
CCCn1c(=O)c2sccc2n2c(SCC(=O)NCc3ccc4c(c3)OCO4)nnc12	nt	nt	-28	104
COc1ccc(CN2CCCC2c2ccc(Cl)cc2)cc1O (stereo not given)	nt	nt	-1	110
COC(=O)Cc1csc2ccc(C)cc12	97	92	-10	107
COc1ccc(OC)c(C(=O)CSc2nc3cccnc3n2C)c1	103	84	-17	100
O=C1CCC(=O)N1CCSC(=S)N1CCCC1	100	86	-6	98
Nc1nc(-c2cccnc2)nn1C(=O)CCc1ccccc1	101	77	0	107
Cc1ccc(C(=O)Nc2ccc(C(=O)O)cc2)cc1S(=O)(=O)Nc1ccccc1	103	92	-22	102
CCOC(=O)c1ccc(Nc2nnc(-c3cc4ccc(N(CC)CC)cc4oc3=O)s2)cc1	nt	nt	-10	229
COc1ccc2c(c1)c(CC(=O)O)c(C)n2Cc1ccc(Cl)cc1	nt	nt	11	100
CCOC(=O)C1CCCN(C(=O)CCCN2C(=O)COc3ccc(C)cc32)C1 (stereo not given)	97	85	-12	106
Cc1nnc(-c2ccc(S(=O)(=O)N3CCCCC3)s2)o1	nt	nt	-45	103
CCOc1ccc(C2CC(=O)n3nc(-c4ccc(C)cc4)nc3S2)cc1 (stereo not given)	107	84	-40	101
(next part)
SMILES	Sa growth inh	Sa growth inh second temp	HCMV NEC inh	GIV-Gai inh
CCN(C(=O)c1cc2c(=O)n3ccccc3nc2s1)c1ccccc1	nt	nt	-29	99
CCOc1ccc(NC(=O)c2cc(S(=O)(=O)N3CCC(C)CC3)cn2C)cc1	115	107	-19	106&102
O=C(Nc1coc2ccccc12)c1ccc(C(F)(F)F)cc1	90	90	-2	nt
Cc1nc2sccn2c1-c1csc(Nc2cccc(Cl)c2C)n1	87	48	-10	104
Cc1ccc2nc(CSc3nnc(COc4ccccc4Cl)o3)cn2c1	85	64	-12	nt
Cc1ccc(Cl)cc1NC(=O)CN1C(=O)c2ccccc2Sc2ncccc21	102	84	nt	103
N#Cc1c(NC(=O)CC2CCCC2)sc2c1CCC2	103	82	-30	nt
CC(O)Cc1nsc(NC(=O)c2ccccc2F)n1 (stereo not given)	nt	nt	-32	106
CCOc1cc(C2C(C(N)=O)=C(C)Nc3ncnn32)cc(Br)c1O (stereo not given)	76	90	nt	100
c1ccc2c(NN=C3CCCCCC3)nncc2c1	72	92	-41	nt
O=C(NC1CCCCC1)c1cnn(-c2ccc(F)cc2)c1	nt	nt	-4	101
CCN1C(=O)N/C(=C/c2cn(Cc3ccccc3)c3ccccc23)C1=O	116	78	nt	98
CS(=O)(=O)Nc1ccc2c(c1)CCC2	106	96	-35	98

In the list so far, 4 have a tert-butyl group.
SMILES	Sa growth inh	Sa growth inh second temp	HCMV NEC inh	GIV-Gai inh
CC1CCN(Cc2cc(=O)n3[nH]c(-c4ccc(C(C)(C)C)cc4)nc3n2)CC1	nt	nt	-23	99
CC(C)(C)c1ccc(C2CC(=O)C(C=NCCN3CCNCC3)=C(O)C2)cc1 (stereo not given)	83	84	-35	102
CC(C)(C)c1csc(-c2ccc(C=N/C(C#N)=C(\N)C#N)cc2)n1	109	84	-10	103
COc1cc(C(=O)Nc2ccc(NC(=O)c3ccc(C(C)(C)C)cc3)cc2)cc(OC)c1OC	107	106	19	103

Full records as entered above. Screens in order: Sa growth inh, Sa growth inh second temp, HCMV NEC inh, GIV-Gai inh
Profile of Cc1cc(OCC(=O)NC(Cc2c[nH]c3ccccc23)C(=O)O)ccc1Cl (stereo not given) = 110, 84, -40, 102
Profile of Cc1ccc(C(=O)Nc2ccc(C(=O)O)cc2)cc1S(=O)(=O)Nc1ccccc1 = 103, 92, -22, 102
Profile of CN(C)C(=S)Oc1ccc2c(C(F)(F)F)cc(=O)oc2c1 = 110, 105, 1, 97
Profile of CCCN=c1ssc(=O)n1CCC = 73, 54, -30, 99
